Screens deposited in PubChem BioAssay by Broad Institute.
Tgondii IFNg – inhibitors of Toxoplasma gondii growth with IFN-gamma. Toxoplasma gondii growth in IFN-gamma-treated host cells; active compounds read low; reference of the scale not given here. activity change, negative = inhibition, %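 (about 20 µM by stock and volumes)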. 69,000 compounds, 3.8% hits;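 active = below -70%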;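 note: host cells are HeLa cells infected with Toxoplasma gondii; parasite growth read as luciferase light; one replicate is shown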
The depositor's hits bear a star; & = joins results of further samples. Not all compounds are listed (hit frequency here may not be typical).

Compound | Tgondii IFNg
CC1(C)O[C@@H]2CC3C4CCC5=CC(=O)C=C[C@]5(C)C4[C@@H](O)C[C@]3(C)[C@]2(C(=O)CO)O1 (stereo partly drawn) | -13.8
Cc1nn(Cc2nc(-c3ccc(NC(=O)c4ccc(C#N)cc4)cc3)oc2C)c(C)c1C | 183.9
O=C(Nc1ccc(Br)cc1)C1CC(c2c(F)cccc2Cl)=NO1 (stereo not drawn) | -0.3
CCCSc1ncc(CN2CCCC2c2ccccn2)cn1 (stereo not drawn) | -4.9
COc1ccc2c3c(n(C)c2c1)[C@H](CO)N(S(C)(=O)=O)CC31CCN(Cc2nccs2)CC1 | 86.0
CN(C)C[C@@H]1CC2CN(C(N)=O)CCC2N1c1nccs1 (stereo partly drawn) | 146.9
CO[C@@H](CN(C)Cc1cc(F)ccc1F)[C@H](C)CN(C(=O)Nc1ccc(C(F)(F)F)cc1)[C@@H](C)CO | -13.1
Cc1cc(C(=O)Nc2cc(C(F)(F)F)ccc2N2CCCC2)n(C)n1 | 0.0
O=C(CN1CCc2[nH]nc(-c3ccccc3F)c2C1)N1C2CCC1c1snnc1C2 (stereo not drawn) | -50.9
NC(=O)c1csc(-c2cc(NC3CCCC3)nc3[nH]ccc23)n1 | -76.4*
O=C1C[C@@H](c2ccccc2)C(=O)N[C@H](c2ccccc2)C/C=C\C[C@@H](c2ccccc2)N1 | 26.6
Nc1c(C(=O)c2ccc(F)c(F)c2)sc2nc3c(c(-c4cccs4)c12)CCCC3 | -31.5
O=C(Cn1c(=O)ccc2cc(S(=O)(=O)N3CCCC3)ccc21)N1CCN(c2ccccn2)CC1 | -16.2
CC1=C(C(=O)NCCCN2C(C)CCCC2C)C2(CCN(Cc3ccccc3)CC2)OC1=O (stereo not drawn) | 79.8
Cc1oc(C2CCN(C(=O)c3ccc4c(c3)OCO4)CC2)nc1C(=O)N1CCSCC1 | -35.8
Nc1nnc(/C=C/c2ccccc2)s1 | 13.9
CN(C)C(=O)COCc1cncc2c1CCN(c1ccccn1)C2 | -48.6
c1ccc(-c2csc(N3CCOCC3)n2)cc1 | 127.7
Cc1occc1C(=O)N1C[C@H]2CN(c3cnn(C)c3)C(=O)[C@H]2C1 | -3.6
COc1cccc(CC(=O)N2CCC3(CC2)Nc2ccc(C)c(C)c2-n2cccc23)c1 | 56.9
O=C(O)CCc1nc2ccccc2oc1=O | 14.9
c1ccc(C(c2ccccc2)c2ccn[nH]2)cc1 | 24.6
Clc1cccc(N2CCN(Cc3nnn(Cc4ccco4)n3)CC2)c1 | -5.4
O=C1NC(c2ccccc2)C12CCN(CCO)CC2 (stereo not drawn) | 28.3
CCS(=O)(=O)N(C)[C@H]1c2cc(C#N)ccc2OC(C)(C)[C@@H]1O | 14.9&7.9
C#CCCCCCCCCC(=O)NCCCC | 12.6
O=c1ccc2cc(S(=O)(=O)N3CCC(N4CCCCC4)CC3)ccc2[nH]1 | -73.2
O=C([C@@H]1[C@@H](CO)[C@@H]2Cn3c(ccc(-c4ccc(F)cc4)c3=O)[C@@H]2N1Cc1cocn1)N1CCCCC1 | 3.7
OC[C@H]1[C@H](c2ccc(C#Cc3ccccc3F)cc2)[C@H]2CN(CC3CCOCC3)CCCCN21 | -39.5
C[C@@H]1CN([C@@H](C)CO)C(=O)CCCn2nncc2CO[C@@H]1CN(C)Cc1cccc(C(F)(F)F)c1 | 27.3
Cc1nnc(-c2ccc3ccn(CC(=O)N4CCN(c5ncccn5)CC4)c3c2)o1 | 129.0
O=C(c1cnccn1)N1CCC2(CCCN2Cc2cccnc2)CC1 | 4.5
O=C(Nc1cccc(Cl)c1)c1nnc(C2CCCN2C(=O)c2cc3ccccc3[nH]2)s1 (stereo not drawn) | 72.8
CN(C)CCCN(Cc1ccsc1)Cc1ccccn1 | -33.3
COc1ccc2oc(=O)c(-c3csc(-c4ccc(Br)cc4)n3)cc2c1 | -3.6
CCCNC(=O)Nc1ccc2c(c1)C(=O)N(C)C[C@@H](OC)[C@H](C)CN(C)[C@H](C)CO2 | -12.6
CCc1ccc(S(=O)(=O)Nc2ccc3c(c2)CCC(=O)N3CCOC)cc1 | -25.1
CC(C)n1cc(NC(=O)C2CC(c3cccc(Br)c3)=NO2)cn1 (stereo not drawn) | -22.5
COc1ccc(CN(Cc2ccnc(N3CCOCC3)n2)CC2CCCO2)cc1 (stereo not drawn) | -0.8
Cn1ccnc1C1(O)CC2CCC(C1)N2C(=O)c1ccc(F)cc1 (stereo not drawn) | -27.3
O=C(C[C@@H]1CC[C@@H]2[C@H](COC[C@H](O)CN2S(=O)(=O)c2cccc(Cl)c2)O1)N1CCOCC1 | -14.1
CCS(=O)(=O)N1CCCCN2[C@H](CO)[C@@H](c3ccc(-c4ccc(C(=O)N(C)C)cc4)cc3)[C@@H]2C1 | -6.2
CC(NC(=O)C1(Oc2ccc(Cl)cc2)CCNCC1)c1cnn(C)c1 (stereo not drawn) | -11.4
Cc1ccnc(C(NC(=O)c2ccc(O)c(Cl)c2)C2CC2)c1 (stereo not drawn) | -5.5
CCC(=O)Nc1cccc(C(=O)NC2C=CS(=O)(=O)C2)c1 (stereo not drawn) | -2.6
Cn1cccc1C(=O)NC[C@H]1C[C@H]2CN(C(=O)c3ccco3)C[C@@H]2O1 | -0.6
CCOc1ccc2[nH]c(=O)c(CNCCO)cc2c1 | -101.1*
COc1ccc(-c2nc3c(s2)CN(S(=O)(=O)c2cccc(F)c2)CC3)cc1 | -4.5
Cn1c(=O)c(C(=O)Nc2cnn(Cc3cccc(F)c3)c2)nc2ccccc21 | -17.4
O=S(=O)(c1ccc(F)cc1)N1CCn2cnc(COc3cccnc3)c2C1 | -8.2
CN(C)C(=O)c1cc2c(nc1NCC1CC1)CCN(c1ncc(F)cn1)CC2 | -0.8
CO[C@H]1CC[C@@H]2[C@H]1OCCN2C(=O)Cc1ccc2c(c1)OCO2 | -0.8
CN(Cc1cnc2c(-c3ccccc3)cnn2c1)Cc1cccc2ncccc12 | -48.2
CN1CCC(N2CCOC(CCNS(=O)(=O)C3CC3)C2)CC1 (stereo not drawn) | 4.7
O=C(CCc1ccccc1)N1CCc2c([nH]c3ccccc23)C1c1ccc(F)cc1 (stereo not drawn) | -46.9
C=CCn1cc(CN2CCC(c3ccnc(-c4cccc(O)c4)c3)C2)c(C)n1 (stereo not drawn) | -17.7
Cn1cc(C(=O)NC2CCN(CC(c3ccccc3)C3CCCCC3)CC2)ccc1=O (stereo not drawn) | 32.4
CNC(=O)c1cc2c(nc1N(C)C)CCN(S(=O)(=O)C1CC1)CC2 | 4.2
CCn1c(C2CCN(C(=O)c3ccccc3C(=O)OC)CC2)nn(C)c1=O | 8.0
O=C(CC1CC1)NCc1cn2c(n1)CN(Cc1ccccn1)CC2 | 9.1

Following part
Compound | Tgondii IFNg
COCCN1C(=O)CC2C1CCN2Cc1ccccc1 (stereo not drawn) | -22.6
Cc1ccccc1-c1nc2cnccn2c1NCCC(=O)N1CCC2(CC1)OCCO2 | 7.4
CCCC(=O)OCOC(=O)C1=C(C)NC(C)=C(C(=O)OC)C1c1cccc(Cl)c1Cl (stereo not drawn) | 11.8
CO[C@H]1CN(C)C(=O)c2ccc(NC(=O)C3CC3)cc2OC[C@H](C)N(C(C)=O)C[C@H]1C | 57.8
COCc1nc(N(C)CCc2scnc2C)c2cnn(C)c2n1 | -1.9
CCC(=O)NCc1csc(C2CCN(C(=O)Cc3ccc(Cl)cc3)CC2)n1 | -38.4
CCCC(=O)N1CCN(C)C(=O)C(Cc2cccc(-c3cccc(OC)c3)c2)C1 (stereo not drawn) | 0.0
Cc1ccc(C(=O)Nc2c(C(=O)NCc3cccnc3)[nH]c3ccccc23)cc1 | -18.5
Cc1cc(=O)[nH]c(SC(C)C(=O)O)n1 (stereo not drawn) | 5.2
O=C(NCc1csc2ccc(Cl)cc12)c1cccnc1Oc1ccc(Cl)cc1 | -61.5
CC(C)C(c1nnnn1C1CCCC1)N1c2ccccc2CC1C (stereo not drawn) | -30.0
Cc1ccsc1CN1C[C@H]2CCC[C@]2(COCC(=O)N(C)C)C1 | 1.5
CC(C)(C(=O)N1CCC(Nc2nc3c(c(=O)[nH]2)CCCC3)CC1)c1ccc(Cl)cc1 | -101.4*
Cc1nc(CCN(C)C(=O)CCNC(=O)c2ccccc2F)no1 | -7.0
O=C(c1ccc(N2CCC(NCC3(N4CCOCC4)CCCC3)CC2)cc1)N1CCCC(O)C1 (stereo not drawn) | -1.7
CC(C)n1cnc(-c2nc(C(=O)NCCc3cccnc3)c3ccccn23)c1 | 6.9
Cc1cnn(Cc2nc(-c3ccc(NC(=O)c4cccc(C#N)c4)cc3)oc2C)c1 | -50.1
COc1ccccc1-c1ccc2c(c1)[C@H]1[C@H](CCN1C(=O)C1CCC1)[C@@H](CO)N2 | -76.3*
CCCn1ccnc1-c1c(-c2ccccc2)ncn1Cc1cccnc1 | 18.5
COCC(=O)N1CC2CN(C(=O)c3cscn3)CC2C1 (stereo not drawn) | 90.8
c1ccc(Nc2ccc(N3CCCC3)nn2)cc1 | 400.3
COCCCNC1=NCCNC12CCN(S(=O)(=O)c1cc(C)cc(C)c1)CC2 | 17.4
CC(C)(C)c1ccc(OCc2ncc(S(=O)(=O)c3ccccc3)c(N)n2)cc1 | -56.6
COc1ccc2c3c(n(C)c2c1)[C@H](CO)N(Cc1nccs1)CC31CCN(CC2CCCC2)CC1 | 338.8
C=CCOCC12CCCOC1CCN(C(=O)c1cc(C)nn1CC)C2 (stereo not drawn) | -6.0
CO[C@@H]1CN(C)C(=O)c2ccc(NS(=O)(=O)CC(F)(F)F)cc2OC[C@H](C)N(C(=O)NC(C)C)C[C@@H]1C | 132.7
COc1cc2c(cc1C1CC(=O)Nc3[nH]ncc31)CCC2 (stereo not drawn) | 4.0
COc1ccc2c3c([nH]c2c1)[C@H](CO)N(C)CC31CN(C(=O)C2CC2)C1 | -5.9
N#Cc1cccc(-c2ccc3c(c2)[C@H]2[C@H](CCN2C(=O)c2ccccc2F)[C@H](CO)N3)c1 | 9.5
COc1cccc2ccc(CN3CCCN(C)C4(CCN(C)CC4)C3)nc12 | -33.2

Ordered by molar mass (highest first): some entries from above
Compound | Tgondii IFNg
CCCNC(=O)Nc1ccc2c(c1)C(=O)N(C)C[C@@H](OC)[C@H](C)CN(C)[C@H](C)CO2 | -12.6
O=C(CCc1ccccc1)N1CCc2c([nH]c3ccccc23)C1c1ccc(F)cc1 (stereo not drawn) | -46.9
Cn1ccnc1C1(O)CC2CCC(C1)N2C(=O)c1ccc(F)cc1 (stereo not drawn) | -27.3

Following part
Compound | Tgondii IFNg
C=CCn1c(=O)c(C(=O)NCCc2ccc(OCC)c(OCC)c2)c(O)c2ccccc21 | 48.9
Cc1oncc1C(=O)NC1CC2(CCN(C)CC2)Oc2ccccc21 (stereo not drawn) | 0.2
Cc1nn(-c2ccc(NC(=O)c3cccnc3)cc2)c(C)c1Cl | 17.5
O=C(/C=C/c1ccc(O)c(O)c1)O[C@@H]1C[C@](OC(=O)/C=C/c2ccc(O)c(O)c2)(C(=O)O)C[C@@H](O)[C@H]1O | -4.3
COc1cc(C)ccc1C(=O)N1CCC(Cn2cc(C3CC3)nn2)CC1 | -1.0
CCNC(=O)NCC1CCCN(Cc2cnn3c(C)cc(C)nc23)C1 (stereo not drawn) | -8.3
CO[C@@H]1CN(C)C(=O)c2cc(NS(=O)(=O)c3cn(C)cn3)ccc2OC[C@H](C)NC[C@H]1C | -65.7
O=C1c2ccccc2S(=O)(=O)N1CC1CC(c2ccccc2Cl)=NO1 (stereo not drawn) | 64.1
COCCCN1CCCC12CCN(C(=O)c1cnccn1)CC2 | -1.7
CCCCn1c(CSc2ccccn2)cn(-c2nnc(C(C)(C)C)s2)c1=O | -26.9
COc1cc(N2CCOCC2)ccc1CN1CCC(O)(c2ccccc2F)CC1 | -4.6
Cc1nc2ccc(CC(=O)NCC(=O)NC3CC3)cc2[nH]1 | -5.3
O=C(C[C@@H]1CC[C@H]2[C@@H](COC[C@H](O)CN2C(=O)Nc2ccc(F)cc2)O1)NC1CCC1 | -29.8
COc1ccccc1CCC1CCN(C(=O)CC2(C)C(=O)N=C3C=CC=CN32)CC1 (stereo not drawn) | -5.4
COc1ccc(NC(=O)C2CSC3c4ccccc4C(=O)N23)cc1 (stereo not drawn) | 6.0
CC(=O)N1CC2(CCN(C(=O)CCCN)CC2)CC1C(=O)O (stereo not drawn) | -27.8
Cc1ccc(N2CC3(CCN(S(=O)(=O)C4CC4)C3)CC2=O)cc1 (stereo not drawn) | 55.5
N#Cc1cnc(Oc2ccc(Cl)cc2)nc1N | 37.8
C[C@@H](NC(=O)C[C@@H]1CC[C@H]2[C@@H](COC[C@@H](O)CN2C(=O)Nc2cccc(Cl)c2)O1)c1ccccc1 | -26.4
C/C(=C\c1csc(C)n1)[C@@H]1C[C@@H]2O[C@]2(C)CCC[C@H](C)[C@H](O)[C@@H](C)C(=O)C(C)(C)[C@@H](O)CC(=O)N1 | -69.4
CCCCc1ccc(Nc2ncnc3c2cnn3-c2ccccc2)cc1 | -21.2
COCC1(c2nc(CN3CCN(C)CC3)no2)CCC1 | -1.5
CCN1CCC2(CN(CC(C)C)CC23CCN(C(=O)NCc2ccccc2)CC3)C1=O (stereo not drawn) | 11.4
Cc1ccc2nc(C(C)Nc3nc(C)nc4c3cnn4C)[nH]c2c1 (stereo not drawn) | -1.9
Cn1nnc2c1C(COCc1ccccn1)CN(C(=O)c1cccs1)C2 (stereo not drawn) | 5.0
CSCCC(=O)N(Cc1ccsc1)CC(C)C | -6.5
O=C(CN1C(=O)CCc2cc(S(=O)(=O)N3CCCC3)ccc21)NC1CC1 | 19.9
COc1cccc(NC(=O)c2ccc(S(=O)(=O)NCc3cccnc3)cc2)c1 | -7.9
O=S(=O)(NCc1ccccc1)Nc1ccc2ncccc2c1 | -1.6
Clc1ccc(C2N(c3ccccc3)CCCN2c2ccccc2)c(Cl)c1 | 21.6
